# GIV-Gai inh: inhibitors of GIV peptide binding to Galpha-i3, primary screen, biochemical, fluorescence polarization, FITC-GIV GBA peptide, rat Galphai3; 90 min; stronger effect = lower value; scaled: aluminum fluoride 0%, vehicle 100%; percent of control (FP), % (concentration not given with the values); 0.42% of 210,000 active; AID 1224905, 2016;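 active = replicate mean at 85% of control or lower, very high polarization wells dropped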;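 also: wells of about 15 µL received 100 nL stock; the first replicate is given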
# Target sequence (P08753 whole entry, looked up): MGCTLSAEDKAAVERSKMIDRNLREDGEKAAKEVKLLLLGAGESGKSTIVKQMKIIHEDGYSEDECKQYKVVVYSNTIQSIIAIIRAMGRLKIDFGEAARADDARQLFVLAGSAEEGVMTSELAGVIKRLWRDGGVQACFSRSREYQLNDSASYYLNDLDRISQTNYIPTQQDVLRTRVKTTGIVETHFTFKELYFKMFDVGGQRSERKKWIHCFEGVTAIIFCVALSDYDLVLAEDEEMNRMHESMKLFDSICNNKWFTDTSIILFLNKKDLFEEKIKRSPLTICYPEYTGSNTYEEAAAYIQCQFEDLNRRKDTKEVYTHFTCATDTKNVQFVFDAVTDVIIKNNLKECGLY
# HCMV UL50-53 inh: inhibitors of HCMV UL50-UL53 interaction, biochemical, HTRF; HCMV UL50-UL53 nuclear egress complex (human cytomegalovirus); normalized percent inhibition; inhibition, % (no concentration beside the values); 0.15% of 190,000 active;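 active = both replicates at 50% or more, plus weaker picks with an unusually low signal ratio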;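 also: stock transfer was 100 nL into about 20 µL; 0% = negative control wells and 100% = wells with untagged competitor protein; inactives centre near -12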
# Sa growth inh: S. aureus growth inhibition at 42 and 30 °C, primary screen, LtaS inhibitor project, RN4220, two temperatures. OD600, 20 h, 42 °C; stronger effect = lower value. relative growth, % (no concentration beside the values). 0.53% of 170,000 active. AID 720641, 2013;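 active = growth at 42 °C up to 50% and 20 or more points under that at 30 °C, or under 10% at both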;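 also: 300 nL library stock went into each well; scaled to the means of positive and negative controls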
# Sa growth inh second temp: second read-out of Sa growth inh, no call of its own (marks repeat the call); relative growth, %; measured here: growth at 30 °C;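 optical density after 20 h as mean of two plates; 100% = untreated growth and lower means inhibition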
# Numbers without * were called inactive; . = not tested or not shown; & = joins results of further samples.
SMILES,GIV-Gai inh,HCMV UL50-53 inh,Sa growth inh,Sa growth inh second temp
Cc1ccccc1NC(=O)Cn1cc(S(=O)(=O)N2CCCC2)c(S(=O)(=O)N2CCCC2)c1,109,.,117,86
O=C(c1cc(-c2ccccc2)c(C(F)(F)F)s1)N1CCCC1,102,-10,100,75
O=C(CC(C(=O)O)C1CCCO1)NC1CCCCC1 (stereo unspecified),101,-14,92,90
CCOC(=O)C1=C(O)C(=O)N(Cc2ccccc2)C1,103,1&-12,.,.
COC(=O)C(C)Sc1ncc(-c2ccccc2)nn1 (stereo unspecified),105,-103,108,74
CCC(C)n1nnc2cc(S(=O)(=O)N(C)CC(=O)NCCN(C)C)ccc21 (stereo unspecified),109,-9,.,.
CCCOc1ccc(N)cc1N,162,.,71,78
Cc1cc(C)cc(NC(=O)CCc2c(C)nc3c(c2C)c(=O)n(C)c(=O)n3C)c1,100,-2,89,87
CCn1ccc2cc(S(=O)(=O)N3CCC(C(=O)NCCc4ccc(SC)cc4)CC3)ccc21,103,.,100,91
CS(=O)(=O)Nc1ccc(/C(N)=N/OC(=O)c2ccc(Cl)cc2)cc1,112,-16,105,89
Cc1ccccc1N1CC23C=CC(O2)C(C(=O)OC(C)C)C3C1=O (stereo unspecified),105,-38,84,84
C=CCN(C(=O)c1cc2c(=O)oc3ccc(C)cc3c2s1)c1ccccc1,98,.,94,86
O=C(NCC1CC1)Nc1cccs1,100,-16,87,83
Oc1ccc2ccccc2c1Sc1nnnn1-c1ccccc1,.,-19,115,87
O=C(O)/C=C/C(=O)Nc1nccs1,103,-5,111,83
COc1cccc(-n2nc(C(=O)N3CCC(C(N)=O)CC3)c3ccccc3c2=O)c1,106,-4,87,87
CN(C)S(=O)(=O)c1cccc(C(=O)N2CCC(C(N)=O)CC2)c1,.,-9,79,89
COc1cccc(C2=NN(C(=O)Cc3ccccc3)C(O)(C(F)(F)F)C2)c1 (stereo unspecified),99,-18,.,.
O=S(=O)(c1ccc(Cl)cc1)N1CCCC1c1cccs1 (stereo unspecified),103,-38,85,82
COc1ccc2cc3c(N)nn(C(=O)CN4CCOCC4)c3nc2c1,104,-75,84,90
CCOC(=O)c1oc2ccc(C=NC(C)(C)C)c(Cl)c2c1C,.,2,100,72
CCCCC(CC)C(=O)Nc1ccc(C#N)cc1 (stereo unspecified),.,-5,65,72
Cc1cccc(OCCCC(=O)Nc2ccc3c(c2)OCO3)c1,106,4,107,84
COc1ccc(S(=O)(=O)c2c(C)cc(C)n(CC(=O)Nc3ccc4c(c3)OCCO4)c2=O)cc1,99,1,.,.
Cc1onc(-c2ccccc2Cl)c1C(=O)NCC1CCCO1 (stereo unspecified),.,-6,94,92
CCN1c2cc(C)ccc2-n2cccc2C12CCN(S(=O)(=O)c1ccc(C(C)(C)C)cc1)CC2,104,10,.,.
Cc1ccc(NC(=O)CCCn2c(=O)c3cccn3c3cccnc32)c(Cl)c1,99,.,124,86
CCOc1ccc(C(=O)c2c(N)c(-c3nc(-c4ccc(OCC)cc4)cs3)c3ccccn23)cc1,98,-11,101,84
CCCN(CCC)c1ncc(NS(=O)(=O)CC)cc1C(=O)O,112,-49,.,.
CCOC(=O)/C(=N\Nc1ccccc1Cl)N(C)C1CCS(=O)(=O)C1 (stereo unspecified),.,-27,89,91
Cc1cccc(N2CCN(CCNC(=O)C3CCN(c4nc5cccnc5s4)CC3)CC2)c1C,100,-8,95,92
CN1CCC(N(C)CC(O)COC2CCCc3ccccc32)CC1 (stereo unspecified),.,-17,101,96
COC(=O)NN1C(=O)c2ccccc2C1=O,97,-7,90,75
O=C(Nc1nnc(CCS(=O)(=O)c2ccc3ccccc3c2)s1)c1ccc(F)cc1,101,-23,.,.
Cc1cc(C)c2c(n1)sc1c(=O)n(CC(=O)c3ccccc3)cnc12,101,-43,100,71
O=C(CCn1c(=O)c2ccccc2n(Cc2cccc(F)c2)c1=O)NCc1ccc2c(c1)OCO2,104,-17,106,94
CCOC(=O)c1[nH]c(C(=O)O)c(CCC(=O)OC)c1C,110,-9,101,93
CCc1ccc(OCCn2c(C3CC(=O)N(Cc4ccc(F)cc4)C3)nc3ccccc32)cc1 (stereo unspecified),103,-20,106,84
CCOc1ccc(-c2nc3ccc(Cl)cn3c2C)cc1,106,-32,.,.
CNC(=S)Nc1cnn(Cc2cccc3ccccc23)c1,108,-7,104,102
CCOC1=NN(c2ccc([N+](=O)[O-])cc2)C(=O)/C1=C\c1cc(OC)c(OC)cc1OC,100,-11,.,.
N#CCc1nc(=O)c2ccccc2s1,103,.,67,46
CC(=O)Nc1ccc(OCC(O)CNC(C)C)cc1 (stereo unspecified),103,-8&-11,84,80
Cc1ccc(CCNC(=O)C(C)c2c(C)n[nH]c2C)cc1 (stereo unspecified),107,-20,98,90
O=C(CCC(=O)N1CCc2cc(S(=O)(=O)NC3CCCC3)ccc21)N1CCOCC1,102,5,.,.
COC(=O)c1ccc(COc2cc(C)cc(C)c2)o1,103,.,113,91
Cc1nn(Cc2ccc(F)cc2)c(C)c1NC(=O)COCc1cc(-c2ccc3c(c2)OCO3)on1,98,4,.,.
O=C(Cn1cc(C(=O)C2CC2)c2ccccc21)Nc1ccc(Br)cc1,100,-8,101,97
COc1ccc(-c2ccc(CNCCO)o2)cc1Cl,107,-35,.,.
CCc1nc(SCC(N)=O)n[nH]1,105,-13,85,84
CCOc1ccccc1C(=O)NC1CCN(c2nc3ccccc3s2)CC1,101,-10,.,.
CCn1cc(S(=O)(=O)c2cccc(Cl)c2)c(=O)c2cc(F)c(N3CCN(C)CC3)cc21,105,.,100,100
O=C(Oc1cccc2cccnc12)N1CCCCCC1,104,.,110,86
COC(=O)CC1=CC(=O)N(CC(=O)Nc2ccc(C)cc2Br)c2ccccc2N1,104,-27,.,.
O=C(Cc1csc(NC(=O)Nc2cccc(Cl)c2)n1)Nc1ccc(Cl)cc1,100,-2,.,.
O=C(NCc1ccccc1)c1ccc2nc(N3CCOCC3)sc2c1,102,3,78,81
CCOC(=O)c1cc(O)c(C(=O)OCC)s1,.,-67,106,80
N#Cc1cccc(C(=O)OCc2cc(=O)oc3cc(O)ccc23)c1,.,-31,66,70
O=C(Nc1ccc(Cl)cc1Cl)c1cc(S(=O)(=O)N2CCN(c3ccccc3F)CC2)ccc1F,103,.,160,90
O=S(=O)(Nc1ccc2oc3c(c2c1)CCCC3)c1ccc(F)cc1,100,-1,39*,83*

# Later entries:
SMILES,GIV-Gai inh,HCMV UL50-53 inh,Sa growth inh,Sa growth inh second temp
CCOC(=O)c1cnn(-c2nc3ccccc3n2C)c1/N=C/N(C)C,.,11,105,91
N/N=C1\CCCc2c1[nH]c1ccc(C(=O)NN)cc21,101,.,89,47
O=C1CN(CC(=O)N2CCN(c3ccc(F)cc3)CC2)c2ccccc2O1,106,.,97,88
Cc1ccccc1CN(c1nc2nc(C)c(Cl)c(C)n2n1)S(=O)(=O)c1ccccc1,100,-14,.,.
COc1ccc(-n2nc(C(=O)Nc3ccc(OC)c(Cl)c3)c(=O)n(C)c2=O)cc1,99,-36,.,.
Cc1ccc(F)cc1NC(=O)c1cnc2ccccn2c1=O,108,1,.,.
CCNC(=O)NCc1nc(-c2ccccc2)no1,105,-26,92,95
CCCS(=O)(=O)N1CCCC(C(=O)NCCCOC)C1 (stereo unspecified),99,.,103,93
Cc1cc(C)c2c(=O)c3c(oc2c1)C(=O)N(Cc1ccco1)C3c1ccccc1F (stereo unspecified),102,11,98,94
CC1CCN(S(=O)(=O)c2ccc3c(c2)N(CC(=O)N(C)Cc2ccccc2)C(=O)CO3)CC1,112,.,121,91
CCCc1c(C(=O)NNc2ccc(C)cc2)cnn1-c1ccccc1,105,-26,83,79
CCN(CC)c1cc(C)c2cc(NC(=O)c3ccc(Br)c(OC)c3)ccc2n1,99,.,93,79
N/N=C(\C(=O)O)c1ccccc1N,96,.,94,86
COc1cccc(-n2c(-c3ccco3)nc3c(cnn3-c3ccc(Cl)cc3)c2=O)c1,111,26,108,100
CCOc1cc(CN2CCN(CC(=O)N3CC(C)CC(C)C3)CC2)cc(Br)c1OC (stereo unspecified),.,-14,99,93
O=S(=O)(NN1CCOCC1)c1cccc2cccnc12,105,.,91,89
COC(=O)/C(C#N)=C\C=C\c1ccccc1,139,-68,89,82
CCOC(=O)c1cc(Sc2ccccc2)cc(C(=O)OCC)n1,101,-5,83,91
COCCCNC(=O)c1sc2nc(C)c(C(=O)Nc3ccc(Cl)cc3)c(-c3ccc(Br)cc3)c2c1N,105,0,106,96
O=C1CCCN=C(Nc2ccc(F)c(Cl)c2)S1,102,13,93,100
C=Cn1c(=N)n(C)c2ccccc21,105,-13,107,95
CCN(CC)C(=O)/C=C/c1cn(-c2ccccc2)nc1-c1cccs1,.,-11,88,89
COC(CNS(=O)(=O)c1ccc(S(=O)(=O)NCc2ccccc2)cc1)OC,104,-25,98,94
FC(F)Sc1nnc(-c2ccccc2)c2ccccc12,.,-12,98,98
O=C(CN1C(=O)C2CCCCN2c2ccc(C(=O)N3CCCC3)cc21)NCc1cccc(F)c1 (stereo unspecified),103,.,110,84
C=CCn1c(=N)n(CC(O)COc2ccc(OC)cc2)c2ccccc21 (stereo unspecified),107,12,88,95
O=C1CN(c2ccccc2)C(=Nc2ccccc2)S1,97,7,104,109
CCOc1ccccc1C(=O)N1CCOCC1,104,3,92,81
O=C(COC(=O)c1ccc(F)cc1)NC(c1ccccc1)c1ccccc1,.,-39,94,85
CS(=O)(=O)Nc1ccc(C2=NN(C(=O)CCC(=O)O)C(c3cccc(F)c3)C2)cc1 (stereo unspecified),101,-69,.,.
CC(C)(CO)NC(=O)COc1ccc(Cl)cc1,102,-3,117,118
Cc1cccc(C)c1OC(=O)CSc1nnc(-c2cccs2)o1,104,-20,93,86
COC(=O)c1ccccc1OCC(=O)Nc1ccc(C)cc1C,.,-36,115,85
CCc1c(C)nc2ncnn2c1Sc1ccccc1NC(=O)Nc1cccc(Cl)c1,106,-25,.,.
CC(C)c1ccc(C2NC(=O)NC2=O)cc1 (stereo unspecified),.,-9,97,77
CN(C)CP(=O)(O)CCn1c2ccccc2c2ccccc21,.,-13,87,86
CN(C(=O)CSc1nc2ccccc2n1Cc1ccncc1)c1ccc(F)cc1,99,2,.,.
Cc1ccccc1NS(=O)(=O)c1cnc[nH]1,98,-23,.,.
Cn1c(-c2nnc(SCC(N)=O)o2)cc2ccccc21,101,-46,.,.
OCC12COC(c3ccccc3)N1C(c1ccccc1)OC2 (stereo unspecified),.,-6,100,81
CCCCOc1ccc(C(C)NC(=O)CN2C(=O)CSc3ccc(S(=O)(=O)N4CCOCC4)cc32)cc1 (stereo unspecified),107,.,119,85

# Molecules from the list above that contain a Cl atom, in the order listed:
SMILES,GIV-Gai inh,HCMV UL50-53 inh,Sa growth inh,Sa growth inh second temp
CS(=O)(=O)Nc1ccc(/C(N)=N/OC(=O)c2ccc(Cl)cc2)cc1,112,-16,105,89
O=S(=O)(c1ccc(Cl)cc1)N1CCCC1c1cccs1 (stereo unspecified),103,-38,85,82
CCOC(=O)c1oc2ccc(C=NC(C)(C)C)c(Cl)c2c1C,.,2,100,72
Cc1onc(-c2ccccc2Cl)c1C(=O)NCC1CCCO1 (stereo unspecified),.,-6,94,92
Cc1ccc(NC(=O)CCCn2c(=O)c3cccn3c3cccnc32)c(Cl)c1,99,.,124,86
CCOC(=O)/C(=N\Nc1ccccc1Cl)N(C)C1CCS(=O)(=O)C1 (stereo unspecified),.,-27,89,91
CCOc1ccc(-c2nc3ccc(Cl)cn3c2C)cc1,106,-32,.,.
COc1ccc(-c2ccc(CNCCO)o2)cc1Cl,107,-35,.,.
CCn1cc(S(=O)(=O)c2cccc(Cl)c2)c(=O)c2cc(F)c(N3CCN(C)CC3)cc21,105,.,100,100
O=C(Cc1csc(NC(=O)Nc2cccc(Cl)c2)n1)Nc1ccc(Cl)cc1,100,-2,.,.
O=C(Nc1ccc(Cl)cc1Cl)c1cc(S(=O)(=O)N2CCN(c3ccccc3F)CC2)ccc1F,103,.,160,90
Cc1ccccc1CN(c1nc2nc(C)c(Cl)c(C)n2n1)S(=O)(=O)c1ccccc1,100,-14,.,.
COc1ccc(-n2nc(C(=O)Nc3ccc(OC)c(Cl)c3)c(=O)n(C)c2=O)cc1,99,-36,.,.
COc1cccc(-n2c(-c3ccco3)nc3c(cnn3-c3ccc(Cl)cc3)c2=O)c1,111,26,108,100
COCCCNC(=O)c1sc2nc(C)c(C(=O)Nc3ccc(Cl)cc3)c(-c3ccc(Br)cc3)c2c1N,105,0,106,96
O=C1CCCN=C(Nc2ccc(F)c(Cl)c2)S1,102,13,93,100
CC(C)(CO)NC(=O)COc1ccc(Cl)cc1,102,-3,117,118
CCc1c(C)nc2ncnn2c1Sc1ccccc1NC(=O)Nc1cccc(Cl)c1,106,-25,.,.

# Assay outcomes deposited in PubChem BioAssay by ICCB-Longwood Screening Facility, Harvard Medical School.
